Ecoli rRNA inh – inhibitors of bacterial rRNA selective over humanized ribosomes. E. coli WT GFP vs humanized-ribosome RFP mutants, fluorescence, 24 h; stronger effect = lower value; DMSO median 0, no signal -100. GFP signal change (wild-type ribosome), % (no concentration beside the values). 1.6% of 350,000 active;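 active = significant combined selectivity score with lowered wild-type GFP, culture density cut under 30%, mutant RFP and density less affected; inactive = any of these conditions unmet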; also: one replicate is shown; some compounds called inactive have numbers as strong as hits
UCH37 DUB inh – inhibitors of human deubiquitinating enzyme UCH37; Q9Y5K5; purified proteasome/UCH37, Ub-AMC cleavage fluorescence; inhibition, % (test concentration not listed); 0.33% of 330,000 active; AID 588478;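 active = mean of two replicates above 20%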;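 also: 0% = compound-free wells with enzyme and 100% = wells lacking proteasome; stock transfer was 100 nL into about 20 µL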
Target sequence (Q9Y5K5 whole entry, looked up): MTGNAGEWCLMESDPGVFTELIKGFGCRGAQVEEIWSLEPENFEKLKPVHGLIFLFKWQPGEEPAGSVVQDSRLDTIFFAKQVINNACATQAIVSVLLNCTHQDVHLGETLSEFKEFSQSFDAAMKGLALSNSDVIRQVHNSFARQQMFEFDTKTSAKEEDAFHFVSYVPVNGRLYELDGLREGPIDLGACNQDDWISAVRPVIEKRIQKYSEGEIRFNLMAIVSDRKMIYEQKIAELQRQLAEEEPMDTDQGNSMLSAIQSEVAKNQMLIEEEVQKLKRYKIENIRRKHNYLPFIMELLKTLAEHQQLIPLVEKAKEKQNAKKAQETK
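system = Proteasome-associated human UCH37 deubiquitinase | amount = 0.15 nM proteasome as dispensed | medium = pH 7.4 Tris-HCl (50 mM) with ovalbumin, ATP-MgCl2, DTT | incubation = 30 min preincubation with enzyme, 25 min cleavage at room temperature | detection = AMC fluorescence 355/460 nm | read-out basis = percent inhibition | controls = no-proteasome and no-compound wells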
Beta apoptosis – beta cell apoptosis inhibition; INS-1E cytokine-induced death, ATP luminescence, 48 h; percent of positive-control rescue, neutral wells zero; protection from apoptosis, % (concentration not given with the values); 0.8% of 300,000 active; AID 435005;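 active = all replicates at 75% or more, or half of them and the mean; inconclusive = half reach 75% but not the mean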;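 also: 0% = cytokine-treated negative control wells and 100% = positive control rescue; higher means more ATP so stronger rescue from cytokine killing; wells of about 40 µL received 100 nL stock; the first replicate is given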
A1 inh – inhibitors of the anti-apoptotic protein A1, read as caspase activation. MEF A1-2A-BIM cells, Caspase-Glo 3/7 luminescence, 3 h; percent of clofoctol response, vehicle zero. caspase activation, % (no concentration beside the values). 0.066% of 330,000 active. AID 2462;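 active = over half of replicate activation scores above 10%, or exactly half above 10 with the replicate mean above 10; inconclusive = replicate mean below 10 yet half the replicates above 10; inactive = over half of replicates below 10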;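 also: wells of about 30 µL received 50 nL stock; many hits fall short of the cut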
MLL AF4-AF9 inh – blocks AF4 peptide binding to human AF9; P42568; AlphaScreen, biotin-AF4 peptide binding to FLAG-AF9; inhibition, % at 10 µM; 0.47% of 350,000 active; AID 651704;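 active = every replicate reaching a set inhibition limit, whatever the replicate mean, cut at about 25% in these data; inconclusive = mean inhibition reaches that limit but some replicates miss it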;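 also: 0% = plate neutral control median and 100% = total signal loss; the record names both 10 and 1 µM as test concentration; the first replicate is given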
Target sequence (P42568 whole entry, looked up): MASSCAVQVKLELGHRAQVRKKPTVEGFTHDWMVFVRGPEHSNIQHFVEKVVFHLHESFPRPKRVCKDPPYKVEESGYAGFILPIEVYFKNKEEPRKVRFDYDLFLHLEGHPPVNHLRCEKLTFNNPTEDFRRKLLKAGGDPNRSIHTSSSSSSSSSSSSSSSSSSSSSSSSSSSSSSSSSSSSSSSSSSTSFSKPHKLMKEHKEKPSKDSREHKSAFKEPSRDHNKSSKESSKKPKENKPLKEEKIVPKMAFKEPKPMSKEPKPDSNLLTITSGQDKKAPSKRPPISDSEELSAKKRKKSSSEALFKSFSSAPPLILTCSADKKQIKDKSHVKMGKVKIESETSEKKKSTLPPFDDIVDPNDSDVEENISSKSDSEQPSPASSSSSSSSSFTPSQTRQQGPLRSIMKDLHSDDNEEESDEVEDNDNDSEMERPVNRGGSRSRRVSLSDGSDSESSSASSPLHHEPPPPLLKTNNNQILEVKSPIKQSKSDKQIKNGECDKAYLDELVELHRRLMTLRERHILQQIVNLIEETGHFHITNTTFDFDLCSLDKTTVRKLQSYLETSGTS
T cruzi inh – T. cruzi replication inhibition; T. cruzi beta-gal in NIH3T3, luminescence, 90 h; inhibition, % (test concentration not listed); 1.4% of 300,000 active;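 active = mean inhibition across valid replicates above about 55%, limit read from the data; inconclusive = mean below that limit but half or more replicates reach it; inactive = mean below it, under half of replicates reach it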;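 also: signal also drops with host cell toxicity which is not excluded here; 0% = plate median of DMSO wells and 100% = zero luminescence signal; higher percent means less beta-gal luminescence so fewer parasites; stock transfer was 50 nL into about 50 µL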
FGF22 binding – FGF22 (human) thermal shift binding; AID 651658; 1.5% of 340,000 active; recombinant FGF22 thermal shift, SYPRO orange fluorescence; percent of sucrose octasulfate shift, DMSO zero; calls only at 9.99 µM;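 active = melting point raised past a set limit in the mean and every replicate; inconclusive = no clear call; three in four hits are not shown here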
Target sequence (Q9HCT0 whole entry, looked up): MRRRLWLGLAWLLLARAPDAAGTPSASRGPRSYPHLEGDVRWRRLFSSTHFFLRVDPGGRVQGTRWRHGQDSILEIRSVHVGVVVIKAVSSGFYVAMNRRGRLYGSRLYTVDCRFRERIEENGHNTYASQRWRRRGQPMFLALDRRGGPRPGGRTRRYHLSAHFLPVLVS
E coli growth – blocks Escherichia coli growth. OD600 absorbance (test concentration not listed). AID 1053175. OD600, 23 h; stronger effect = lower value. 0.21% of 330,000 active;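 active = OD600 absorbance below the run mean of sample wells minus 3.6 SD, in any replicate, cut at about 0.56 in these data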;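 also: stock transfer was 300 nL into about 60 µL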
Ecoli rRNA inh OD600 – further read-out of Ecoli rRNA inh, marked with its call; OD600 change, %; measured here: OD600 growth;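 optical density of the mix in the first replicate; 0 = DMSO median and -100 = no signal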
Ecoli rRNA inh RFP – also measured in Ecoli rRNA inh; calls as there; RFP signal change, %; measured here: RFP humanized mutant strains;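 first replicate; 0 = DMSO median and -100 = no signal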
* = called active by the depositor; i = inactive; ? = inconclusive; nt = not tested or not shown; + = active, no number; & = joins results of further samples.

SMILES	Ecoli rRNA inh	Ecoli rRNA inh OD600	Ecoli rRNA inh RFP	UCH37 DUB inh	Beta apoptosis	A1 inh	MLL AF4-AF9 inh	T cruzi inh	FGF22 binding	E coli growth
CC(NC(=O)c1cc(COc2ccccc2)on1)c1nccs1 (centres undefined)	0	8	-3.8	2.0	1	-1.0	-0.5	5	i	0.68
CCN(C(=O)CN1C=NS(=O)(=O)c2ccccc21)c1ccccc1	-1	1	-1.7	1.3	1	-1.4	4.2	-2	i	0.64
O=C(c1ccc(COc2ccccc2Cl)o1)N1CCN(Cc2ccc3c(c2)OCO3)CC1	-49	-74	-22	1.9&1.8	6	-0.3&-0.7	0.3	3&5	i	0.66&0.71
CCCCc1cc(=O)oc2cc(C)cc(O)c12	-44	-64	-16	-2.3	0	-0.3	nt	3	nt	0.67
Cc1ccccc1N(C(=O)Cn1nnc(-c2cccs2)n1)C(C(=O)NCCC(C)C)c1ccco1 (centres undefined)	nt	nt	nt	0.3	24	-0.8	nt	14	nt	0.72
O=C(Nc1ccc2c(c1)OCO2)C(c1ccccc1)N1CCN(C(=O)c2ccco2)CC1 (centres undefined)	nt	nt	nt	0.5	3	0.0	nt	-23	nt	0.74
CC(C)(NS(=O)(=O)OCC(Cl)(Cl)Cl)c1ccccc1	5	2	0.5	1.1	0	-0.3	-5.8	2	i	0.71
O=C1C[C@H](c2ccc(O)cc2)Oc2cc(O[C@@H]3O[C@H](CO)[C@@H](O)[C@H](O)[C@H]3O)cc(O[C@@H]3O[C@H](CO)[C@@H](O)[C@H](O)[C@H]3O)c21	15	12	6.7	-0.3	-6	-0.1	-3.8	nt	i	nt
CS(=O)(=O)c1ccc2nc(NC(=O)CN3C(=O)C4CC=CCC4C3=O)sc2c1 (centres undefined)	6	14	0.6	-0.7	-2	0.0	-3.4	-11	i	0.65
COc1ccc(NCc2nnc(SCC#N)n2-c2ccccc2OC)cc1	nt	nt	nt	5.6	-4	0.1	nt	-2	nt	0.7
CC(=O)c1cccc(-n2nnnc2SCC(=O)Nc2cccc(NC(=O)c3ccco3)c2)c1	nt	nt	nt	1.4	1	-0.2	nt	-7	nt	0.72
O=C(COC(=O)CNC(=O)C1CCCCC1)Nc1ccccc1OC(F)F	-1	1	-2.0	3.5	-4	2.2	2.2	nt	i	0.68
C=CCC[C@@H](Cc1ccc(F)cc1)C(=O)OC[C@H](Cc1c[nH]c2ccccc12)NC(=O)[C@H](CC=C)CC(=O)N(CCO)Cc1ccccc1	0	5	-5.5	1.9	nt	nt	-0.2	nt	i	0.72
CCN(CC)C(=O)[C@H]1CC(CC(=O)NCc2ccco2)C(=O)N2CCc3c([nH]c4ccccc34)[C@]12C (some centres undefined)	-3	-12	6.4	1.0	-2	0.2	3.1	nt	i	0.69
COc1ccc(C(=O)C2CCCN(C(=O)c3cccc(N4CCCC4=O)c3)C2)cc1OC (centres undefined)	2	5	-1.7	1.8	nt	nt	5.1	-11	i	0.72
COc1ccc(S(=O)(=O)N2CCCCC2)cc1NCC(=O)Nc1ccc(C)cc1	-5	-14	-4.0	1.5	26	-0.8	-0.1	18	i	0.65
O=C(CSc1nc2ccccc2[nH]1)NC1CCS(=O)(=O)C1 (centres undefined)	nt	nt	nt	-1.9	-6	0.0	nt	12	nt	0.68
CCN(CC)c1ccc(C(=O)NNC(=O)C2CSC3(C)CCC(=O)N23)cc1 (centres undefined)	-2	2	-1.2	3.3	-2	-0.3	-3.6	nt	i	0.67
Cc1nc2ccc(C(=O)N/N=C/c3ccccc3O)cc2[nH]1	-10	-2	0.0	nt	4	-2.3	3.1	-9	+	nt
Cc1cccc(NC(=S)N(CCCN(C)C)Cc2cc3cc4c(cc3[nH]c2=O)OCO4)c1	-4	2	1.6	-58	-8	1.2	8.1	2	i	0.66
COC(=O)c1ccc(NC(=O)CSc2nnc(COc3c(C)cccc3C)o2)cc1	nt	nt	nt	4.8	4	0.4	nt	-4	nt	0.79
CC(=O)c1ccc(N2CCN(C(=O)CCS(=O)(=O)c3ccc4c(c3)NC(=O)CS4)CC2)cc1	4	7	-1.2	1.4	-2	-0.4	-12	-16	i	0.73
O=C(CN1C(=O)NC2(CCCC2)C1=O)NNC(=O)c1ccc(Br)cc1	0	-22	0.4	nt	-7	?	6.0	-11	i	nt
Cc1ccc(NC(=S)N(CCCN2CCOCC2)Cc2ccco2)cc1	-1	-4	4.1	-2.6	-6	0.1	-8.2	-7	i	0.69
C[C@@H]1NC(=O)c2cc([N+](=O)[O-])cc(F)c2NCCC[C@@H](C(N)=O)NC(=O)[C@H](CC(N)=O)NC1=O	21	19	1.7	2.8	-4	0.4	4.2	-8	i	nt
CC(=O)c1c(C)[nH]c(C(=O)Nc2cccc(C)n2)c1C	7	-3	2.3	3.3	-2	-4.1	2.3	10	i	0.68
Cc1ccc(-c2nc(SCC(=O)NCC3CCCO3)c(-c3ccccc3)[nH]2)cc1 (centres undefined)	-2	-15	0.1	-3.7	7	-0.6	-6.0	4	i	0.7
CSc1cccc(NC(=S)N2CCC(N(C)C3CCCCC3)CC2)c1	10	5	0.8	0.9	-8	0.9	6.2	13	i	0.7
CC1CN(C(=S)NC2CCCC2)CC(C)O1 (centres undefined)	8	5	0.2	1.0	1	2.6	-2.5	-14	i	0.72
O=C(c1cc(-c2ccc(F)cc2)on1)N1CCCCCC1	1	7	-0.8	2.2	-3	0.9	-3.4	8	i	0.6
COc1ccccc1C1C(C(=O)c2sc(C)nc2C)=C(O)C(=O)N1CCN1CCOCC1 (centres undefined)	nt	nt	nt	8.8	0	0.5	nt	-3	nt	0.73
COc1ccc(NC(=O)CN2CCN(S(=O)(=O)c3ccc(C(C)C)cc3)CC2)cc1OC	nt	nt	nt	0.1	2	-0.4	nt	10	nt	0.75
COc1cc(C(=O)Nc2cccc(C)n2)ccc1OCC(=O)N1CCOCC1	4	9	0.6	1.0	-2	0.8	-0.2	nt	i	0.67
CCC(C)NC(=O)Cn1c(=O)n(CCCCCC(=O)Nc2ccccc2)c(=O)c2sccc21 (centres undefined)	nt	nt	nt	0.4	-1	-0.5	nt	11	nt	0.69
CNNC(=S)NC1CC2CC1C1C=CCC21 (centres undefined)	nt	nt	nt	4.6	-8	1.1	-1.2	7	i	0.63
COc1ccc(CC(=O)OCn2nnc3ccccc3c2=O)cc1OC	11	8	3.3	1.6	-1	-0.7	3.8	0	i	0.68
CC1CCN(c2nc3ccc(C(=O)NCCCN4CCCCC4C)cc3s2)CC1 (centres undefined)	-4	-9	-0.5	2.2	1	0.9	-0.2	24	i	0.77
c1ccc(Cn2ncc3c(N4CCCCC4)ncnc32)cc1	nt	nt	nt	1.5	nt	0.8	nt	4	nt	0.7
CCC(C)(C)C1CCC(=NNS(=O)(=O)c2ccc(C)c([N+](=O)[O-])c2)CC1 (centres undefined)	-22	-21	-0.8	2.7	0	1.6	-0.8	-11	i	0.73
CC(C)(CO)NC(=O)C(c1ccccc1)c1ccccc1	nt	nt	nt	3.4	-1	0.1	nt	0	nt	0.67
CCN1CCCC1CNCC(=O)Nc1ccc(OC(F)(F)F)cc1 (centres undefined)	8	5	1.8	0.5	-2	1.5	6.0	13	i	0.63
Cc1ccc(/C=C(\NC(=O)c2ccccc2)C(=O)NC(Cc2ccccc2)C(=O)O)cc1 (centres undefined)	nt	nt	nt	1.9	1	0.8	nt	-4	nt	0.68
COc1ccc(NC(=O)CSc2nc3[nH]ncc3c(=O)[nH]2)cc1OC	2	4	-1.2	1.5	-4	-0.1	9.8	-5	i	0.62
CC(=O)Nc1ccc(NC(=O)C(C)OC(=O)c2ccc(C)s2)cc1 (centres undefined)	6	-10	-2.6	3.8	-1	-0.1	-4.2	-8	i	0.7
CCCCOc1ccc(Cl)cc1CSc1n[nH]c(C)n1	nt	nt	nt	-0.2	-1	0.2	nt	9	nt	0.72
CC(CC(=O)N1CCN(C(=O)c2ccccc2)CC1)c1ccccc1 (centres undefined)	8	10	-0.7	0.5	-3	-0.1	-2.5	-2	i	0.68
N#C/C(=C\c1ccncc1)C(N)=O	20	15	2.9	-0.6	nt	-0.4	-1.5	-7	nt	0.67
Cc1cccc(C(=O)Oc2cc(C)[nH]c(=O)c2[N+](=O)[O-])c1	10	7	1.6	7.1	-2	-0.3	1.7	-11	i	0.74
CCc1ccc(OC(C)C(=O)N(Cc2ccccc2)C2CCS(=O)(=O)C2)cc1 (centres undefined)	-1	2	-1.5	7.0	nt	0.2	0.8	17	i	0.66
CCCSc1nnc(NC(=O)c2ccco2)s1	-13	-9	0.5	-0.9	2	-0.2	-2.7	6	i	0.62
CN(Cc1cccnc1)C(=O)CCCc1c[nH]c2ccccc12	0	-3	-0.7	2.9	-8	0.2	5.2	9	i	0.7
CCC(C)(C)n1nnnc1C(c1cc2cc(OC)ccc2[nH]c1=O)N1CCc2ccccc21 (centres undefined)	nt	nt	nt	-16	0	-0.9	nt	16	nt	0.65
O=C(Nc1ccon1)c1cc(-c2ccccc2)nc2ccccc12	nt	nt	nt	-5.2	4	0.1	nt	-24	nt	0.71
Cc1ccc(S(=O)(=O)N(C)C)cc1NC(=O)COC(=O)/C=C/c1ccc(F)cc1	1	10	0.9	-0.1	-10	-0.5	-10	2	nt	0.63
COc1ccccc1N1CCN(C(=O)c2cccc(S(=O)(=O)Nc3ccccc3F)c2)CC1	-2	-23	3.3	0.9	-2	0.5	-2.4	nt	i	0.71
CCC1(c2ccc(F)cc2)NC(=O)N(CC(=O)Nc2ccc(C(N)=O)cc2)C1=O (centres undefined)	1	7	-0.1	-1.2	-2	-0.2	1.0	-4	i	0.65

Single records (already shown). Order of screens: Ecoli rRNA inh, Ecoli rRNA inh OD600, Ecoli rRNA inh RFP, UCH37 DUB inh, Beta apoptosis, A1 inh, MLL AF4-AF9 inh, T cruzi inh, FGF22 binding, E coli growth
CCC1(c2ccc(F)cc2)NC(=O)N(CC(=O)Nc2ccc(C(N)=O)cc2)C1=O (centres undefined) as listed: 1, 7, -0.1, -1.2, -2, -0.2, 1.0, -4, i, 0.65
Cc1ccc(/C=C(\NC(=O)c2ccccc2)C(=O)NC(Cc2ccccc2)C(=O)O)cc1 (centres undefined) as listed: nt, nt, nt, 1.9, 1, 0.8, nt, -4, nt, 0.68
CCN(C(=O)CN1C=NS(=O)(=O)c2ccccc21)c1ccccc1 as listed: -1, 1, -1.7, 1.3, 1, -1.4, 4.2, -2, i, 0.64
Cc1ccc(-c2nc(SCC(=O)NCC3CCCO3)c(-c3ccccc3)[nH]2)cc1 (centres undefined) as listed: -2, -15, 0.1, -3.7, 7, -0.6, -6.0, 4, i, 0.7
CC(CC(=O)N1CCN(C(=O)c2ccccc2)CC1)c1ccccc1 (centres undefined) as listed: 8, 10, -0.7, 0.5, -3, -0.1, -2.5, -2, i, 0.68

These rows are one share of the data; count on the stated rates, not on these rows.
